Cruzain noTriton: qHTS Assay for Promiscuous and Specific Inhibitors of Cruzain (without detergent); AID 1476, 2009; Potency, µM, without a hit: max response, negative = inhibition, hits mostly inhibitors; Cruzipain (Trypanosoma cruzi), P25779; 200,000 compounds, 2.3% hits; purified cruzain, Z-FR-AMC fluorescence, no detergent;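 further: plate controls were enzyme without inhibitor for no effect and buffer without enzyme for full effect; nearly all actives have a fitted effect of over 40% in size; top concentration of the series not given in the record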
Target sequence (P25779 123-467 limits assumed): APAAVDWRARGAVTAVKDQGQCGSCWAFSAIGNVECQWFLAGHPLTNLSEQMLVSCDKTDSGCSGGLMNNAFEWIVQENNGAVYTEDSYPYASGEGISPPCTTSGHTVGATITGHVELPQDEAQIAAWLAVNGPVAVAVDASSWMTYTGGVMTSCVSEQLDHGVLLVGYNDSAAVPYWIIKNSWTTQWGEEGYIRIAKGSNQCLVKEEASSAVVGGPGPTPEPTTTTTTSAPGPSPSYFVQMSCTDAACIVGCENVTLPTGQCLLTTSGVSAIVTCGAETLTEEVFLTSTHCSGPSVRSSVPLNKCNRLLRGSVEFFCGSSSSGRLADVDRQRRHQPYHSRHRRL
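Purified cruzain at 1.5 nM, pre-incubated 15 min with compound at room temperature in 100 mM sodium acetate pH 5.5, 5 mM DTT, 0.00005% Triton X-100. Reaction started with 2 uM Z-FR-AMC; AMC fluorescence increase over 60 s gives rate.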
Lassa entry inh: qHTS for Inhibitors of binding or entry into cells for Lassa Virus; Lassa virus pseudotype entry inhibition, cell reporter; control for the full effect not named in the record; Potency, µM (series often up to 37.9 µM), without a hit: at the highest dose activity change, negative = inhibition, hits mostly inhibitors; 300,000 compounds, 1.2% hits; active means well fitted inhibition curve with a large enough effect; inconclusive means small, poorly fitted or top-dose-only effect, or effect the other way; inactive means flat fitted curve, though single readings scatter; tested in HEK293 cells; further: on the % scale 0 is the no-effect control and ±100 the full control effect; nearly all actives have a fitted effect of over 50% in size; luciferase read-out
RE007 growth inh: qHTS Assay for Inhibitors of the HIV-1 protein Vpr; S. pombe RE007 Vpr strain, BacTiter-Glo ATP luminescence, 24 h; control for the full effect not named in the record; Potency, µM (highest dose often 92.2 µM), without a hit: at the top dose activity change, negative = less growth; 360,000 compounds, 0.21% hits; active = well fitted falling curve with a large enough effect; inconclusive = small, poorly fitted or top-dose-only effect; inactive = no such curve, though single readings can be large or run the other way;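 further: on the % scale 0 is the no-effect control and ±100 the full control effect; nearly all actives have a fitted effect of over 50% in size; the assay follows cell death caused by Vpr and the record does not say whether a fall means rescue or toxicity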
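Fission yeast strain RE007, carrying one chromosomally integrated HIV-1 vpr copy, was seeded at OD 0.01 in PMG+AL medium with 23 nL pinned compound. After 24 h at 30 °C and 99% humidity, viability was read by BacTiter-Glo luminescence.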
NS1 inh: qHTS Assay for Inhibitors of Influenza NS1 Protein Function; S. cerevisiae slowed by influenza A NS1, growth recovery by OD600; Potency, µM (titrated, usually from 46.1 µM), inactives show at the top dose activity, positive = more growth; 270,000 compounds, 0.4% hits; AID 2326, 2010; active means well fitted rising curve with a large enough effect; inconclusive means small, poorly fitted or top-dose-only effect; inactive means no such curve, though single readings can be large or run the other way; further: nearly all actives have a fitted effect of over 50% in size
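Read-out: OD600 growth recovery of NS1-expressing budding yeast. Cells grown overnight at 30C in -URA glucose medium, washed, resuspended and diluted 1:100 in 2% galactose assay medium, pH 6.0. Same strain lacking NS1 served as positive control.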
MARV entry inh: qHTS for inhibitors of binding or entry into cells for Marburg Virus; Marburg virus pseudotyped entry inhibition, cell reporter; control for the full effect not named in the record; about a third of the inactives were read at about 46 µM; Potency, µM (series often up to 37.8 µM), without a hit: top-dose activity change, negative = inhibition, hits mostly inhibitors; 300,000 compounds, 1.8% hits; active = well fitted inhibition curve with a large enough effect; inconclusive = small, poorly fitted or top-dose-only effect, or effect the other way; inactive = flat fitted curve, though single readings scatter; tested in HEK293 cells; about a fifth of its hits are not listed in these tables; further: on the % scale 0 is the no-effect control and ±100 the full control effect; luciferase read-out
SARS PLpro yeast: qHTS of Yeast-based Assay for SARS-CoV PLP. S. cerevisiae expressing SARS-CoV PLpro, growth rescue; control for the full effect not named in the record. 330,000 compounds, 0.19% hits. Potency, µM (doses to about 32.9 µM), for the others: at the highest dose activity, positive = growth rescue. AID 485353, 2010; active means well fitted rising curve with a large enough effect; inconclusive means small, poorly fitted or top-dose-only effect; inactive means no such curve, though single readings can be large or run the other way; further: 0% is about no effect; nearly all actives have a fitted effect of over 55% in size; growth read by luminescence after 48 h
StopGo reporter: High Throughput Screening for Foot and Mouth Disease Virus Antivirals; 410,000 compounds, 1.2% hits; human cells with a luciferase reporter of 2A StopGo recoding; control for the full effect not named in the record; Potency, µM (top dose mostly 57.9 µM), without a hit: at the highest dose signal change, negative = less light; AID 1159524, 2015; active = well fitted falling curve with a large enough effect; inconclusive = small, poorly fitted or top-dose-only effect; inactive = no such curve, though single readings can be large or run the other way; tested in HEK293T cells; further: on the % scale 0 is the no-effect control and ±100 the full control effect; nearly all actives have a fitted effect of over 45% in size; luciferase light after 4 h
Cruzain inh Det: qHTS Assay for Promiscuous and Specific Inhibitors of Cruzain (with detergent); AID 1478, 2009; Cruzipain (Trypanosoma cruzi), P25779; Potency, µM, for the others: max response, negative = inhibition, actives largely listed as inhibitors; purified cruzain, Z-FR-AMC fluorescence, 0.01% Triton; 200,000 compounds, 0.43% hits;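 further: plate controls were neutral wells for no effect and buffer without enzyme for full effect; nearly all actives have a fitted effect of over 40% in size; top concentration of the series not given in the record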
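Detergent-containing arm of a paired screen for aggregation-based inhibition: 0.01% Triton X-100 present. Cruzain at 1.5 nM cleaved 2 uM Z-FR-AMC at pH 5.5 with 5 mM DTT; AMC fluorescence gain over 60 s measured activity.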
* hit, by the source's call; u = inconclusive; x = no result given; & = joins results of further samples; [ ] = dose if it differs, or a comment. Unless noted, the call rests on the fitted dose curve; in most records, active means well fitted curve in the direction sought with a large enough effect; inconclusive means small, poorly fitted or top-dose-only effect, or another doubt; inactive means no such curve, though single readings can be large; an effect the other way counts as inactive or inconclusive. Potency means the concentration at half of the fitted maximal effect. An unsorted share of the library (roughly 4.6% active in at least one column).

SMILES | Cruzain noTriton | Lassa entry inh | RE007 growth inh | NS1 inh | MARV entry inh | SARS PLpro yeast | StopGo reporter | Cruzain inh Det
O=C(CN1C(=O)C2(SCC(=O)N2c2ccc(F)c(F)c2)c2ccccc21)Nc1cccc(Cl)c1 (stereo not drawn) | u | -27%[46.1 µM] | x | x | x | x | u | -5.9%
CN(CC(=O)Nc1ccccc1Sc1ccccc1)Cc1nc2ccccc2c(=O)[nH]1 | x | u | -9% | 0% | u | 0% | u | x
COC(=O)C(C)Oc1cc(C)cc2oc(=O)c3c(c12)CCC3 (stereo not drawn) | 24% | -10% | -16% | -76% | 4% | -19% | -26% | -13%
CCOc1ccc(NC(=O)C2CCCN(S(=O)(=O)c3cnc[nH]3)C2)cc1 (stereo not drawn) | x | x | -8% | 0% | x | 2% | -11% | x
CCOC(=O)N1CCC(NC(=O)CCc2nc(-c3ccc(C)cc3)no2)CC1 | u | -23% | 6% | 5% | 4%[46.1 µM] | 3% | 0% | -1.2%
COc1ccccc1C(O)Cc1nc2ccccc2n1C (stereo not drawn) | 6% | -2% | -2% | -3% | u | 17% | 49%[activator] | 10%
Cc1ccccc1CN1c2ccccc2-c2nc(SCC(N)=O)ncc2S1(=O)=O | 6% | -2%[46.1 µM] | x | x | x | x | -9% | -0.2%
Cc1ccc(CN2CCSc3ccc(C(=O)NC4CCCC4)cc32)cc1 | x | x | -7% | 2% | x | -2% | 15% | x
CCOC(=O)c1ccc(NC(=S)N(CCCN2CCCC(C)C2)Cc2cccs2)cc1 (stereo not drawn) | x | u | 4% | 1% | u | 0% | 7% | x
CCC(C)[C@H](NC(=O)N1CCn2c1nc1ccccc12)C(=O)NCCc1ccc(OC)c(OC)c1 (stereo partly drawn) | x | x | -14% | -12% | x | 8% | 1% | x
CCCCNC(=O)Nc1nnc(-c2ccccc2)o1 | -4% | 19% | 36% | -10% | -10% | 18% | 23% | -2.0%
CC(NS(=O)(=O)c1ccccc1)C(=O)Nc1nccs1 (stereo not drawn) | -1% | -1% | 1% | 3% | 1%&1% | -5% | 15% | 5.7%
Cc1ccc(OCC(=O)N/N=C/c2cn[nH]c2-c2ccc(Cl)c(Cl)c2)cc1 | 4% | -1% | -33% | 15% | u | -8% | u | -3.7%
Cc1c(Cl)cccc1NC(=S)NCCc1ccccn1 | x | -28% | -11% | 2% | 2%[14.2 µM] | 0% | -5% | x
Cc1ccc(CNC(=O)NC23CC4CC(CC(C4)C2)C3)cc1 | 2% | u | 8% | 4% | u | 7% | 0% | -1.4%
O=C(NNC(=O)c1cc(Br)ccc1O)c1csc(N2CCOCC2)n1 | x | 1% | 7% | x | u | 3% | 2% | x
CCN(C(=O)CCCC(=O)N(CC)c1ccccc1)c1ccccc1 | 14% | -4% | -6% | -7% | u | 7% | 0% | -1.5%
COc1ccccc1NC(=O)CN(c1ccccc1F)S(C)(=O)=O | 3% | -1% | -4% | 0% | u | 3% | -1% | -2.2%
C/C(=C\c1cccc(Cl)c1)C(=O)c1c(C)cc(C)[nH]c1=O | x | x | 0% | -3% | x | 0% | 0% | x
CC(NC(=O)[C@H](NC(=O)[C@@H]1Cc2ccccc2CN1)c1ccccc1)c1ccccc1 (stereo partly drawn) | x | x | 11% | 24% | x | -5% | -10% | x
O=C(O/N=C(/c1ccccc1)c1ccncc1)c1cccc(F)c1 | x | x | 22% | x | -15%[46.1 µM] | 1% | -10% | x
CCc1ccc(NC(=O)c2ccc(F)c(S(=O)(=O)N3CCN(c4cc(C)ccc4C)CC3)c2)cc1 | -21% | -19%[46.1 µM] | x | x | x | x | -14% | 0.3%
C=CCn1c(SCC(=O)Nc2ccc(O)cc2)nc2sc(CC)cc2c1=O | x | u | 0% | 15% | u | -2% | 5% | x
CCN(C(=O)COC(=O)/C=C/c1ccccc1)C1CCCCC1 | x | u | -16% | x | 9%[46.1 µM] | 0% | -4% | x
CCOC(=O)c1cnn(-c2ncnc3c2oc2ccccc23)c1N | -1% | 9% | -16% | -3% | -23% | -1% | -28% | 7.8%
COc1cc(-c2nc3c(c(C)nn3-c3ccccc3)c3cc(OC)c(OC)cc23)ccc1O | 12% | 8% | 23% | 12% | 17%[46.1 µM] | -5% | u | 9.6%
c1ccc(Oc2cccc(OCCCn3cncn3)c2)cc1 | -4% | 9% | 3% | -44% | 20%[46.1 µM] | 0% | 2% | 0.9%
COC(=O)Cn1c(=O)c2c(nc3n2CC(C)CN3c2ccc(C)c(C)c2)n(C)c1=O (stereo not drawn) | x | x | 20% | 3% | -7% | -1% | -12% | x
COc1ccc(C(CNc2ccc(S(=O)(=O)N3CCN(C)CC3)cc2[N+](=O)[O-])N(C)C)cc1 (stereo not drawn) | x | -2% | -4% | x | u | 4% | 0% | x
O=C(O)CCC(=O)Nc1cc(C(F)(F)F)cc(C(F)(F)F)c1 | x | x | -1% | -2% | x | 1% | -2% | x
CCS(=O)(=O)N1CCCc2cc(C(=O)Nc3cccc(C(C)=O)c3)ccc21 | -8% | -1%[46.1 µM] | x | x | 1%[46.1 µM] | x | -28% | -6.1%
CC(C)CC(C(=O)NC1CCCC1)N(Cc1ccc2c(c1)OCO2)C(=O)c1snc(C(N)=O)c1N (stereo not drawn) | x | 1% | -13% | 1% | u | 0% | -8% | x
COc1ccccc1CC(=O)Nc1ccc2[nH]ncc2c1 | x | 14% | -14% | -5% | u | -2% | 0% | x
COc1ccc2ccccc2c1C(O)c1nccn1C (stereo not drawn) | -3% | 23% | -4% | -1% | -1% | 0% | 4% | -0.5%
COc1cccc(NC(=O)c2ccc(NC(=O)C(C)C)cc2)c1 | x | -4% | 0% | -5% | 2%[46.1 µM] | -1% | 56%[activator] | x
Cc1ccccc1NC(=O)c1cccc(C(=O)Nc2ccccc2C)c1 | x | -18% | 0% | x | 18%[14.2 µM] | x | -24% | x
Cc1nc(SCC(=O)Nc2ccc(Cl)cc2C(F)(F)F)[nH]c(=O)c1Cc1ccccc1 | 5% | -17%[46.1 µM] | x | x | 2%[46.1 µM] | x | -6% | -0.5%
Cc1cccn2c(=O)c3cc(S(=O)(=O)c4ccccc4)c(=N)n(Cc4cccnc4)c3nc12 | x | 17% | -9% | 0% | -5%[46.1 µM] | -2% | 5% | x
COc1cc(C2C3=C(CC(C)(C)CC3=O)N(C)C3=C2C(=O)CC(C)(C)C3)cc(Br)c1O | x | x | -1% | -9% | x | 0% | -12% | x
COc1ccc(-n2c(=S)[nH]c3cc(C(=O)NCc4ccccc4OC)ccc3c2=O)c(OC)c1 | x | 2% | 1% | 11% | u | 1% | -15% | x

Taken from above (five entries):
SMILES | Cruzain noTriton | Lassa entry inh | RE007 growth inh | NS1 inh | MARV entry inh | SARS PLpro yeast | StopGo reporter | Cruzain inh Det
Cc1ccccc1NC(=O)c1cccc(C(=O)Nc2ccccc2C)c1 | x | -18% | 0% | x | 18%[14.2 µM] | x | -24% | x
Cc1nc(SCC(=O)Nc2ccc(Cl)cc2C(F)(F)F)[nH]c(=O)c1Cc1ccccc1 | 5% | -17%[46.1 µM] | x | x | 2%[46.1 µM] | x | -6% | -0.5%
Cc1cccn2c(=O)c3cc(S(=O)(=O)c4ccccc4)c(=N)n(Cc4cccnc4)c3nc12 | x | 17% | -9% | 0% | -5%[46.1 µM] | -2% | 5% | x
COc1cc(C2C3=C(CC(C)(C)CC3=O)N(C)C3=C2C(=O)CC(C)(C)C3)cc(Br)c1O | x | x | -1% | -9% | x | 0% | -12% | x
COc1ccc(-n2c(=S)[nH]c3cc(C(=O)NCc4ccccc4OC)ccc3c2=O)c(OC)c1 | x | 2% | 1% | 11% | u | 1% | -15% | x

More records follow.
SMILES | Cruzain noTriton | Lassa entry inh | RE007 growth inh | NS1 inh | MARV entry inh | SARS PLpro yeast | StopGo reporter | Cruzain inh Det
CN(CC(=O)N1CCN(Cc2ccccc2)CC1)C(=O)Cc1cccc2ccccc12 | x | 1% | -23% | x | u | 0% | 8% | x
COc1ccc(NC(=O)C(C)SCc2ccccc2)cc1OC (stereo not drawn) | 5% | 1% | 14% | -5% | 0% | 27% | -21% | -6.0%
O=C(O)c1ccc(S(=O)(=O)N(Cc2ccccc2)Cc2ccccc2)cc1 | x | x | 30% | -3% | x | 0% | -17% | x
CCOC(=O)c1oc2ccccc2c1COC(=O)CNC(=O)c1ccccc1 | x | 9% | 0% | -4% | 14% | -7% | -14% | x
CCOCCCNC(=O)/C(C#N)=C/c1ccc([N+](=O)[O-])o1 | x | u | 45µM* | x | u | -4% | 32µM* | x
O=C(Nc1cccc(F)c1)OC(CN1CCCCC1)C(F)(F)F (stereo not drawn) | -12% | 26% | -10% | -8% | u | 2% | -28% | 3.9%
O=C(CSc1nncc2ccccc12)N1CCCCC1 | x | 16%[46.1 µM] | -15% | x | 1%[46.1 µM] | 0% | -6% | x
CC(=O)Nc1cccc(NC(=O)c2cc3ccccc3o2)c1 | -4% | u | -21% | -7% | 25% | 0% | 1% | 0.2%
CCCC(C(=O)N1CCOCC1)N1C(=O)C2C3C=CC(C3)C2C1=O (stereo not drawn) | -1% | 1% | 10% | -5% | 11% | 2% | 20% | 4.5%
O=C(CN1CCCC1)Nc1c(C(=O)C2CC2)oc2ccccc12 | x | u | -11% | 2% | -25% | 2% | 3% | x
CC(=NCCN1CCN(C(C)=C2C(=O)c3ccccc3C2=O)CC1)C1=C(O)CC(C)(C)CC1=O | 9% | -2% | -6% | -2% | 0% | -23% | -26% | -4.7%
O=C(CSc1nc2[nH]ncc2c(=O)[nH]1)NCc1ccccc1 | -3% | -1% | -8% | 5% | 4% | 3% | -12% | 0.6%

Screening data deposited in PubChem by National Center for Advancing Translational Sciences (NCATS).
